Assay outcomes from PubChem.
Beta2AR agonist = beta2AR agonists driving receptor internalization, primary screen, cell-based, FAP fluorogen, flow cytometry; 340,000 compounds, 0.43% hits; response, % (concentration not given with the values); Am2.2-beta2AR cells; reference of the scale not given here; Beta-2 adrenergic receptor (Homo sapiens), P07550;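 active = response above a set limit, near 3 SD of response in nonfluorescent compounds, cut at about 42% in these data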;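 note: stock transfer was 100 nL into about 11 µL; a reference agonist was the positive control; negative values mostly stem from fluorescent compounds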
Target sequence (P07550 whole entry, looked up): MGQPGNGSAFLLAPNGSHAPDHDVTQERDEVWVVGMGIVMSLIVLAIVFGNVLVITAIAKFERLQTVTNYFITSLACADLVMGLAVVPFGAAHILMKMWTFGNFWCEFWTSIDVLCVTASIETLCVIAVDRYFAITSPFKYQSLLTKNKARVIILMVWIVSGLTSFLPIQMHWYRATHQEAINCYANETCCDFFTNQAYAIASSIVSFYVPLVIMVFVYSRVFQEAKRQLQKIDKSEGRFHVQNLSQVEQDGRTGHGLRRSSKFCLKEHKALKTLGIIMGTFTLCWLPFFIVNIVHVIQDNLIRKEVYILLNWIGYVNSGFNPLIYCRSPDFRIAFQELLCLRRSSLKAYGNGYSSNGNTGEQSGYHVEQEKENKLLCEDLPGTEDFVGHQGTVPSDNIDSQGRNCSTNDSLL
HNF4A DNA FP = change in binding of human HNF4A to DNA, primary screen, biochemical, fluorescence polarization, FITC-DNA. 360,000 compounds, 0.3% hits. AID 1224865, 2016. 1 h. activity change, % at 10 µM; in the data active = activity change above about 30%, passing the limit was not always enough;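 note: controls were the assay level and a saturating level of protein; the project sought stronger binding though the title names inhibitors; some compounds called inactive have numbers as strong as hits; positive values seem to mean higher polarization but the record does not say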
Calb FLC = C. albicans growth inhibition with fluconazole, primary screen, CaCi-2 strain, Alamar Blue fluorescence; growth inhibition, % (concentration not given with the values); 300,000 compounds, 0.57% hits; C. albicans CaCi-2 (fluconazole-resistant clinical isolate) + fluconazole, 48 h; AID 1979, 2009;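 active = most replicates above 75%; inconclusive = exactly half above 75%; inactive = most below 75%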;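 note: all wells also contain fluconazole at 8 µg/ml as a sub-toxic cotreatment; 0% = median of DMSO wells and 100% = median of geldanamycin control wells; wells of about 8 µL received 7.5 nL stock; the first replicate is given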
ALR H2O2 inh = inhibitors of human ALR sulfhydryl oxidase, primary screen, biochemical, H2O2 detection, HRP-luminol luminescence, single point; FAD-linked sulfhydryl oxidase ALR (Homo sapiens), P55789; purified ALR, DTT oxidation; inhibition, % (no concentration beside the values); 290,000 compounds, 3.8% hits; AID 485317, 2010;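 active = mean and each replicate at 75% or more; inconclusive = only one of the two met; inactive = neither met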;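 note: stock transfer was 7.5 nL into about 7.5 µL; 0% = neutral wells and 100% = wells with inactivated enzyme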
Target sequence (P55789 whole entry, looked up): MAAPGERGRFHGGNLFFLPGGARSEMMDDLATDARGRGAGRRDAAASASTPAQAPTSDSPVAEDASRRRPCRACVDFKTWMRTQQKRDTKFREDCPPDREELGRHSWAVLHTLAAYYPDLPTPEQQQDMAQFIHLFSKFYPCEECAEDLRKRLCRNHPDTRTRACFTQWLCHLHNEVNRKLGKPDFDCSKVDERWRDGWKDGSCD
RanGTP-Imp inh = inhibitors of RanGTP-importin-beta interaction, primary screen, biochemical, FRET, CFP-Ran, YFP-importin-beta, homogeneous. Ran GTPase (GTP-bound) - importin-beta complex. cell-free CFP-Ran/YFP-importin-beta FRET ratio. inhibition, % (no concentration beside the values). 300,000 compounds, 1.1% hits;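 active = most replicates above 15%; inconclusive = exactly half above 15%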;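 note: 0% = DMSO wells and 100% = Ran loaded with GDP instead of GTP; wells of about 40 µL received 100 nL stock; the first replicate is given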
Vif TR-FRET = inhibitors of Vif binding to APOBEC3G peptide, primary screen, biochemical, TR-FRET, GST-Vif 1-94, biotin-A3G peptide, dose response retest (AID 1117319); Virion infectivity factor (Human immunodeficiency virus type 1 group M subtype B (isolate …; TR-FRET GST-Vif / biotin-A3G peptide binding; higher % means a stronger effect; test concentration not given here; strong numbers were not always called active; inhibition, %; hits with a dose series show IC50 in µM; 260,000 compounds, 0.57% hits;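 active = above the screen mean plus three standard deviations and confirmed in dose response; inconclusive = results disagree or hit not tested in dose response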;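 note: Vif residues 1-94 fused to GST binding biotinylated APOBEC3G peptide 110-148; 0% = full assay without inhibitor and 100% = GST in place of GST-Vif; retest series ran down from 100 µM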
LANA-H2B inh = blockers of LANA interaction with H2A/H2B – biochemical, FP readout, HTS, primary screen; Protein LANA1 (Human herpesvirus 8 type P (isolate GK18)), Q9QR71; cell-free LANA-H2A/H2B peptide, fluorescence polarization; inhibition, % (no concentration beside the values); 320,000 compounds, 0.6% hits; AID 2629, 2010; in the data active = inhibition mostly above about 10%, no sharp cut-off; inactive = mostly below about 6.7%;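 note: stock transfer was 7.5 nL into about 10 µL; 0% = median of vehicle wells and 100% = median of positive control wells; one replicate is shown; the record names a cut of 25% in any replicate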
Numbers without * were called inactive; u = inconclusive; x = not tested or not shown; & = joins results of further samples. Hits appear at their usual frequency; any-hit rate near 6.3%.

Structure,ALR H2O2 inh,Calb FLC,LANA-H2B inh,RanGTP-Imp inh,Vif TR-FRET,Beta2AR agonist,HNF4A DNA FP
Cc1ccc(S(=O)(=O)N(C)CC(=O)NCC(c2ccco2)N(C)C)cc1 (stereo not given),0.1,x,2.1,x,0.0%,-1.3,0.3
CCCC(=O)Nc1ccc(NC(=O)c2cccc(OC)c2)nc1,-5.7,-6.1,-4.2,-1.8,-3.3%,-1.7,0.3
O=C(c1cccc(C(=O)N2CCN(c3ccc(F)cc3)CC2)c1)N1CCN(c2ccc(F)cc2)CC1,19.4,6.5,0.8,8.2,8.9%&-4.7%,9.2,-0.4
COc1ccc(NC(=O)CSc2nc3ccccc3cc2Cc2ccccc2)cc1,1.1,0.8,-3.4,7.1,-11.4%,1.8,-3.7
O=C1CC(c2cccc([N+](=O)[O-])c2)c2ccc3ccccc3c2N1 (stereo not given),-6.7,53.7,-0.6,-2.4,4.5%,x,3.9
COc1cc(C(=O)NNC(=O)COc2ccccc2Cl)ccc1OCC(=O)N1CCOCC1,x,x,2.7,x,x,-0.3,-1.2
CCOC(=O)Cc1csc(N/N=C/c2ccc(C(F)(F)F)cc2)n1,1.4,-26.1,5.5,-4.5,4.1%,-4.3,1.6
COc1ccc(C(=O)NCC(=O)N2CCN(c3ccc(Cl)cc3)CC2)cc1,1.1,9.7,0.1,0.4,3.5%,-2.6,-1.9
CC1CCc2c(sc(/N=C/N(C)C)c2C#N)C1 (stereo not given),0.8,-7.8,5.8,3.1,-10.2%,-12.1,0.2
O=C(NCc1ccc2c(c1)OCO2)NC12CC3CC(CC(C3)C1)C2,11.1,-4.1,-0.5,1.4,5.4%,-2.1,-3.1

Structure,ALR H2O2 inh,Calb FLC,LANA-H2B inh,RanGTP-Imp inh,Vif TR-FRET,Beta2AR agonist,HNF4A DNA FP
FC(F)(F)c1cnc(Sc2ncn[nH]2)c(Cl)c1,-2.1,1.5,0.5,-0.7,x,-6.8,2.8
CCNC(=S)N(CCc1ccc(S(N)(=O)=O)cc1)C1CC(=O)N(c2ccccc2)C1=O (stereo not given),-9.2,13.5,1.9,5.2,17.8%,-3.8,-1.9
CN(C)CC(C)(C)CNS(=O)(=O)c1cccc(Cl)c1Cl,-0.1,-7.7,8.9,1.9,-3.0%,9.2,1.5
CC1Sc2ccc(S(=O)(=O)N3CCC(C(=O)NCC(C)c4ccccc4)CC3)cc2NC1=O (stereo not given),-5.4,-9.6,-1.6,-2.4,x,4.1,0.1
COC(=O)C1=C(Cn2cnc3ccccc32)NC(=O)NC1c1cc(C)ccc1C (stereo not given),0.8,12.4,1.6,3.8,5.9%,-4.7,1.3
C=C1CCC[C@]2(C)C[C@H]3OC(=O)C(CN(C)CC(OC)OC)[C@H]3CC12 (stereo not given in full),-15.3,-15.9,-4.1,0.9,x,-0.5,1.6
CCN1C(=O)[C@H]2[C@@H](c3ccc(-c4ccc(C(C)=O)cc4)cc3)N3CCCC[C@@]3(C(=O)OC)[C@H]2C1=O,-12.5,6.8,-3.4,-0.1,x,7.4,-1.8
COc1cc(C(C)=O)ccc1OCC(O)CNCC(O)c1ccccc1 (stereo not given),x,5.2,-4.9,4.5,-15.9%,-9.2,-1.1
COc1ccc(CCn2c(C)cc(C(=O)CSc3nc(N)cc(=O)[nH]3)c2C)cc1,x,-2.3,x,-1.2,-0.1%,11.7,0.4
Cc1ccc(Cl)cc1N1CCN(C(=O)c2ccc(CN3CCOCC3)cc2)CC1,-10.4,-7.2,-0.3,6.2,u,-11.9,-0.1

Structure,ALR H2O2 inh,Calb FLC,LANA-H2B inh,RanGTP-Imp inh,Vif TR-FRET,Beta2AR agonist,HNF4A DNA FP
CCC(C)c1ccc(NC(=S)NN2CCOCC2)cc1 (stereo not given),3.3,0.4,1.1,7.2,x,3.0,7.3
COC(=O)C1=C(C)Nc2nc3ccccc3n2C1c1ccccc1F (stereo not given),x,4.0,-2.2,1.6,-5.2%,-1.9,-0.8
Cc1cc2ncn(/N=C/c3ccc(-c4ccccc4)o3)c2cc1C,19.8,-2.6,1.4,-0.4,-5.1%,-4.7,2.9
CC1Cc2ccccc2N1C(=O)CSc1nnc(Cn2nnc3ccccc32)n1C (stereo not given),-1.3,-5.5,-5.6,2.2,-4.0%,0.2,4.4
CSc1ccccc1C(=O)NCc1ccc2c(c1)OCO2,-3.6,-34.9,-4.1,-0.8,3.4%,-3.6,-1.4
CC1CCCN(C(=O)COC(=O)CNC(=O)c2ccc(Br)cc2)C1 (stereo not given),10.0,-1.0,-2.6,x,x,-1.3,0.5
C=CCN(CC=C)C(=O)C1CCN(Cc2ccc(OCc3ccccc3)cc2)CC1,-25.7,-1.2,1.8,0.9,3.9%,-6.0,5.6
CC(NCCN(C)C)C1CCC2C3CCc4cc(O)ccc4C3CCC12C (stereo not given),x,x,x,x,-3.1%,9.1,3.1
COc1ccc2c(c1)C(C1C(=O)CCCC1=O)c1ccccc1O2 (stereo not given),-14.9,-13.2,6.1,5.8,-4.0%,14.2,-1.9
CCOC(=O)c1ccc(N2CCOCC2)c(NC(=O)c2ccc3c(c2)OCO3)c1,-5.3,-6.8,4.6,-5.4,-1.8%,10.8,0.7

Structure,ALR H2O2 inh,Calb FLC,LANA-H2B inh,RanGTP-Imp inh,Vif TR-FRET,Beta2AR agonist,HNF4A DNA FP
COc1ccnc(N=CNOCc2ccc(C)cc2)c1C#N,-3.7,-2.0,-1.6,1.1,-3.7%,6.6,1.6
Cc1ccccc1CN1CCN(CC(=O)NCc2ccccc2)C1=O,-0.3,-7.4,4.8,-0.7,0.9%,0.6,1.3
CCOC(=O)n1c(=O)n(Cc2ccc(Cl)c(Cl)c2)c2ccccc21,-0.1,0.2,-0.1,4.4,0.8%,-6.8,-0.5
COC(=O)CNC(=O)CSc1nc2sc(-c3ccccc3)cc2c(=O)n1-c1ccccc1,-8.4,-1.8,-2.4,-4.1,x,4.6,1.9
O=C(c1cnc2n(c1=O)CCS2)N1CCc2ccccc21,-3.8,-3.8,9.8,7.0,3.2%,-14.5,5.0
Cc1cc(Br)ccc1SCC(=O)NCC(c1ccco1)N1CCCCC1 (stereo not given),x,0.9,-2.5,2.0,-1.6%,7.0,2.7
CCn1c(CSc2nc3ccccc3s2)nnc1SCC(=O)c1ccc2c(c1)OCCO2,x,5.8,3.7,-6.1,-7.7%,-3.9,-3.8
COCCn1c(SCc2ccc(OC)c(F)c2)nnc1-c1ccncc1,x,-1.6,0.7,-1.1,x,2.5,0.3
CC1CCCN(c2ccc3nncn3n2)C1 (stereo not given),-45.2,-3.5,-0.4,-3.5,1.3%,15.4,-2.5
CC(=O)c1ccc(NC(=O)CN2CCN(c3ncccn3)CC2)cc1,11.1,-0.2,0.9,7.6,3.8%,6.5,0.4

Structure,ALR H2O2 inh,Calb FLC,LANA-H2B inh,RanGTP-Imp inh,Vif TR-FRET,Beta2AR agonist,HNF4A DNA FP
CCOC(=O)C1=C(C)N(CC)C(=S)NC1c1ccccc1OC(F)F (stereo not given),21.9,-5.9,2.8,-1.0,-3.0%,3.8,0.8
COc1ccc(CCNC(=O)c2ccc(N3CCCC3=O)cc2)cc1,-5.2,-6.7,-1.6,-0.8,31.5%,4.9,3.0
CN(Cc1ccccc1)Cc1c(O)ccc2ccccc12,69.9,2.9,2.5,3.1,x,-1.0,1.6
CCN(CC(=O)NC1CCS(=O)(=O)C1)S(=O)(=O)c1ccc(F)cc1 (stereo not given),-5.0,-3.8,5.2,3.6,x,2.9,-2.4
OC(c1ccccc1)c1nccc2ccccc12 (stereo not given),-5.3,4.5,2.7,0.8,2.1%,0.1,6.7
COCCOC(=O)C1=C(C)NC(=O)NC1c1c(Cl)nc2ccccn2c1=O (stereo not given),8.4,-1.8,3.0,u,3.4%,-0.7,-4.2
COc1cc2c(cc1NC(=O)COC(=O)C(CCSC)NC(=O)c1ccccc1Cl)oc1ccccc12 (stereo not given),-4.5,12.8,0.3,-4.3,-5.7%,0.9,2.5
CC(C)c1ccccc1NC(=O)c1cnccn1,-6.9,-2.1,1.4,u,22.3%,-8.6,3.1
CC(=O)Nc1ccc(S(=O)(=O)N[C@@H](C)C(=O)N2CCN(C/C=C/c3ccccc3)CC2)cc1,x,x,x,x,-18.6%,-4.1,-0.8
Cc1ccc(S(=O)(=O)N2CCNC(=O)C2)c(C)c1,x,x,x,x,2.5%,-7.4,-3.8

Structure,ALR H2O2 inh,Calb FLC,LANA-H2B inh,RanGTP-Imp inh,Vif TR-FRET,Beta2AR agonist,HNF4A DNA FP
O=C(N/N=C/c1ccc(O)cc1)NC12CC3CC(CC(C3)C1)C2,93.3*,2.5,0.1,4.5,-8.0%,11.7,3.3
O=C(CCCO)N/N=C/c1ccccc1[N+](=O)[O-],-3.8,-0.2,2.8,-3.6,x,-3.0,-1.4
CCOC(=O)C(NC(=O)CC)(Nc1sc(C)c(CC)c1C#N)C(F)(F)F (stereo not given),2.4,-16.4,1.0,0.5,x,4.7,4.0
Fc1cccc2ncnc(OCc3ccccc3)c12,0.1,7.5,5.0,-1.0,-1.2%,3.0,-1.3
COc1ccc(/C(C)=N/N2C(C)CCCC2C)c(OC)c1 (stereo not given),-1.2,0.4,-5.5,u,-4.9%,-2.2,-0.1
COC(=O)c1sccc1NC(=O)Nc1ccccc1F,11.6,-9.2,12.2*,0.0,-6.9%,-2.5,-2.3
COc1ccc(Cl)cc1NC(=O)C1(c2cccs2)CCOCC1,-26.0,-5.3,1.2,3.4,-3.5%,0.8,-1.1
Cc1ccc(S(=O)(=O)Nc2ccccn2)cc1[N+](=O)[O-],-4.6,13.2,-3.0,-0.4,4.8%,2.5,1.3
COc1cc2c(cc1OC)-c1cc(Nc3ccc(N(C)C)cc3)nc(=O)n1CC2,99.2*,6.0,0.8,-59.9,x,2.4,1.8
COc1ccc(CN(C(=O)c2snc(C(N)=O)c2N)C(C(=O)NC(C)(C)C)c2ccco2)cc1 (stereo not given),-1.8,29.8,-1.4,u,u,5.0,-0.5
CC(=O)c1cccc(S(=O)(=O)Nc2c(C)nn(C)c2C)c1,46.0,x,-3.1,x,-7.1%,-3.7,-3.8
Cc1cc(C)n(C(=O)CNC(=O)Cc2ccccc2)n1,-4.5,23.8,11.8,2.3,-9.8%,1.0,-4.7
